Ecoli rRNA inh: inhibitors of bacterial rRNA selective over humanized ribosomes. E. coli WT GFP vs humanized-ribosome RFP mutants, fluorescence, 24 h; hits give low values; DMSO median 0, no signal -100. GFP signal change (wild-type ribosome), % (no concentration beside the values). 350,000 compounds, 1.6% hits. AID 720706;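 active means significant combined selectivity score with lowered wild-type GFP, culture density cut under 30%, mutant RFP and density less affected; inactive means any of these conditions unmet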; further: one replicate is shown; some compounds called inactive have numbers as strong as hits
Ecoli rRNA inh OD600: also measured in Ecoli rRNA inh; calls as there; OD600 change, %; measured here: OD600 growth;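 optical density of the mix in the first replicate; 0 = DMSO median and -100 = no signal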
Ecoli rRNA inh RFP: further read-out of Ecoli rRNA inh, marked with its call; RFP signal change, %; measured here: RFP humanized mutant strains;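 first replicate; 0 = DMSO median and -100 = no signal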
Numbers without * were called inactive; i = inactive; / = no result given; & = joins results of further samples. An excerpt. The share of hits here may be higher or lower than overall.

smiles | Ecoli rRNA inh | Ecoli rRNA inh OD600 | Ecoli rRNA inh RFP
CCCN(C)C[C@@H]1OCCCC[C@H](C)Oc2ccc(NC(=O)Nc3ccc4c(c3)OCO4)cc2C(=O)N([C@H](C)CO)C[C@@H]1C | -2 | 1 | 0.1
CCCN1C[C@H](C)[C@H](OC)CN(C)C(=O)c2cc(NC(=O)c3ccccc3)ccc2OC[C@H]1C | 1 | 4 | -0.4
CCS(=O)(=O)N1CC(=O)N2[C@@H](CO)[C@H](c3ccc(-c4ccccc4C)cc3)[C@@H]2C1 | -2 | -3 | 0.2
CCC(=O)N1CCC2(CC1)CN(C(=O)c1ccccn1)[C@@H](CO)c1c2c2ccc(OC)cc2n1C | 3 | 0 | -1.1
C/C=C/c1ccc([C@@H]2[C@@H](CNC(=O)CC3CC3)N(C(C)=O)[C@H]2CO)cc1 | -1 | -6 | -2.9
C[C@@H](NC(=O)C[C@@H]1C[C@@H]2c3cc(NC(=O)C4CCC4)ccc3O[C@@H]2[C@@H](CO)O1)c1ccccc1 | 4 | 2 | -3.1
CCCN1C[C@H](C)[C@H](OC)CN(C)C(=O)c2cc(NC(=O)Nc3cccc(OC)c3)ccc2OC[C@H]1C | 1 | 0 | -0.8
COC(=O)c1ccc(CN2CC(=O)N3[C@@H](CO)[C@@H](c4ccc(-c5cccnc5)cc4)[C@@H]3C2)cc1 | -4 | 5 | 0.3
COc1ccc(C[C@H]2CCc3cnnn3COCCNC2=O)cc1 | 1 | 7 | -0.4
O=C(C[C@@H]1CC[C@H]2[C@@H](COC[C@H](O)CN2CCc2ccccc2)O1)NCc1ccc(F)cc1 | -2 | 6 | -2.3

Following part.
smiles | Ecoli rRNA inh | Ecoli rRNA inh OD600 | Ecoli rRNA inh RFP
CC(=O)N1[C@H](CN(CC(C)C)C(=O)c2ccccn2)[C@H](c2ccccc2)[C@@H]1CO | 1 | 3 | -2.4
CCNC(=O)C[C@H]1C=C[C@H](NS(=O)(=O)c2ccc(F)cc2)[C@@H](CO)O1 | 2 | 6 | 0.2
C[C@@H]1CN(C)C(=O)Cc2ccccc2O[C@@H]1CN(C)S(C)(=O)=O | 1 | 3 | 2.9
COc1ccc(C[C@H]2CCc3cnnn3COC[C@H](C(C)C)NC2=O)cc1 | -1 | 3 | -4.3
CN(C)CC#Cc1ccc([C@@H]2[C@H](CO)N3C(=O)CN(C(=O)Cc4cccnc4)C[C@@H]23)cc1 | 4 | 8 | -4.1
C[C@@H]1CN([C@@H](C)CO)C(=O)CCCn2cc(nn2)CO[C@@H]1CN(C)C(=O)Nc1cccc(C(F)(F)F)c1 | -11 | -16 | -0.4
C[C@@H](NC(=O)C[C@H]1C[C@@H]2c3cc(NC(=O)c4ccc5c(c4)OCO5)ccc3O[C@@H]2[C@H](CO)O1)c1ccccc1 | -3 | -3 | 0.4
COCC(=O)N1CC(=O)N2[C@H](CO)[C@H](c3ccc(C#CC4CCCCC4)cc3)[C@H]2C1 | 5 | -6 | 3.4
CCC(=O)N1CC[C@@H]2[C@H]1c1cc(C#Cc3cccc(OC)c3)ccc1N[C@@H]2CO | -1 | 2 | -3.7
COc1cccc(C#Cc2ccc([C@H]3[C@H]4CN(C(C)=O)CC(=O)N4[C@H]3CO)cc2)c1 | 1 | -2 | -1.3

(continued)
smiles | Ecoli rRNA inh | Ecoli rRNA inh OD600 | Ecoli rRNA inh RFP
COc1cccc(-c2ccc([C@H]3[C@H](CO)N4C(=O)CN(C(=O)C5CCC5)C[C@@H]34)cc2)c1 | -1 | 9 | -0.3
Cc1ccc(S(=O)(=O)N(C)C[C@@H]2Oc3ccc(NS(=O)(=O)c4cn(C)cn4)cc3C(=O)N([C@H](C)CO)C[C@@H]2C)cc1 | 3 | 7 | 1.0
O=C(C1CCCC1)N1CC2(C1)[C@@H](c1ccccc1)[C@H](CO)N2CCC(F)(F)F | 1 | 3 | 0.3
O=C([C@@H]1[C@@H](CO)[C@@H]2Cn3c(cccc3=O)[C@H]1N2C(=O)CC1CC1)N1CCc2ccccc2C1 | 1 | -2 | 2.2
C/C=C/c1ccc([C@H]2[C@@H](CO)N(C(C)=O)[C@@H]2CN(CC(C)C)C(=O)CC)cc1 | -1 | -2 | 3.3
O=C(c1ccc(F)cc1)N1CC[C@@H]2[C@@H](CO)Nc3ccc(C#CC4CC4)cc3[C@@H]21 | 4 | 17 | -2.0
CC(C)NC(=O)N(C)C[C@H]1Oc2ccccc2C(=O)N(C)C[C@@H]1C | -1 | 0 | -0.4
CO[C@H]1CN(C)C(=O)c2ccc(NC(=O)Cc3ccccc3)cc2OC[C@H](C)N(C)C[C@H]1C | 1 | 6 | 2.1
CCCNC(=O)Nc1ccc2c(c1)OC[C@H](C)N(C(C)=O)C[C@@H](C)[C@H](OC)CN(C)C2=O | 2 | 0 | -0.7
Cc1ccc(S(=O)(=O)N(C)C[C@H]2OCCCC[C@@H](C)Oc3ccc(NC(=O)CCC(F)(F)F)cc3C(=O)N([C@@H](C)CO)C[C@H]2C)cc1 | -1 | -7 | 2.2

(more compounds)
smiles | Ecoli rRNA inh | Ecoli rRNA inh OD600 | Ecoli rRNA inh RFP
O=C(Nc1cccc(F)c1)N1CC(=O)N2[C@H](C1)[C@H](c1ccc(C#CC3CC3)cc1)[C@@H]2CO | -5 | -41 | 28
CC(=O)N(C)C[C@@H]1[C@H](c2ccc(-c3ccccc3F)cc2)[C@H](CO)N1C(C)=O | -2 | -2 | -1.8
O=C1CN(S(=O)(=O)Cc2ccccc2)C[C@@H]2[C@@H](c3ccc(C#Cc4ccc(F)cc4)cc3)[C@H](CO)N12 | 0 | 7 | 2.6
C[C@H](CO)N1C[C@H](C)[C@H](CN(C)C(=O)Nc2cccc3ccccc23)Oc2ccc(NC(=O)C3CC3)cc2CC1=O | 4 | -5 | 1.0
O=C1N[C@@H](Cc2ccccc2)COCc2cn(nn2)CC[C@@H]1Cc1ccc(Cl)cc1 | -2 | 0 | -3.4
O=C(C1CCCC1)N1CC(=O)N2[C@@H](CO)[C@H](c3ccc(C#CCc4ccccc4)cc3)[C@@H]2C1 | -40 | -65 | 1.6
C[C@H]1CCCCO[C@@H](CN(C)Cc2ccncc2)[C@@H](C)CN([C@@H](C)CO)C(=O)c2cc(NC(=O)Nc3ccccc3)ccc2O1 | -1 | -4 | 0.1
O=C(C[C@H]1CC[C@@H]2[C@H](COC[C@H](O)CN2CC2CCCC2)O1)NCC1CC1 | -7 | 2 | 3.7
CCCC(=O)Nc1ccc2c(c1)C(=O)N(C)C[C@@H](OC)[C@H](C)CN(CC1CCOCC1)[C@H](C)CO2 | -3 | -3 | 0.0
CC(=O)N(C)C[C@@H]1[C@H](c2ccc(-c3ccc(F)cc3)cc2)[C@H](CO)N1C(C)=O | 0 | 1 | -2.3

Remaining list, next part
smiles | Ecoli rRNA inh | Ecoli rRNA inh OD600 | Ecoli rRNA inh RFP
COc1ccc2c3c(n(C)c2c1)[C@@H](CO)N(C)CC31CCN(S(C)(=O)=O)CC1 | -2 | -4 | -1.7
Cc1noc(C)c1S(=O)(=O)Nc1ccc2c(c1)C(=O)N([C@@H](C)CO)C[C@H](C)[C@@H](CN(C)C(=O)c1ccccc1)OCCCC[C@H](C)O2 | 1 | -2 | 1.9
COc1ccc2c3c([nH]c2c1)[C@@H](CO)N(Cc1ccccn1)CC31CN(C(=O)CC2CC2)C1 | 2 | 3 | 0.0
CCCC(=O)Nc1ccc2c(c1)C(=O)N(C)C[C@H](OC)[C@@H](C)CN(C(=O)c1ccncc1)[C@H](C)CO2 | 1 | 1 | -1.3
CC(=O)N1CC[C@H]2[C@H](CO)Nc3ccc(C#Cc4ccccc4F)cc3[C@H]21 | 2 | 9 | 1.2
O=C(Nc1ccccc1F)N1C[C@@H]2N[C@H](C1)C2c1ccc(-c2cccc(F)c2)cc1 (stereo partly drawn) | -26&-5 | -68&4 | 14&-2.3
O=C(NC1CCCCC1)N1CC2(C1)[C@H](c1ccccc1)[C@@H](CO)N2CC1CC1 | -4 | -7 | 4.3
O=C1CN(S(=O)(=O)c2ccccc2)C[C@@H]2[C@@H](c3ccc(C#Cc4ccccc4)cc3)[C@H](CO)N12 | 4 | 10 | -1.2
CC(C)CC#Cc1ccc([C@H]2[C@@H](CO)N3C(=O)CN(C(=O)Nc4ccc(F)cc4)C[C@H]23)cc1 | -46 | -68 | -0.2
COc1cccc(NC(=O)N2CC(=O)N3[C@H](CO)[C@@H](c4ccc(Br)cc4)[C@@H]3C2)c1 | -8 | 5 | -0.3

The listing continues.
smiles | Ecoli rRNA inh | Ecoli rRNA inh OD600 | Ecoli rRNA inh RFP
COc1ccc(CN2CC3(C2)CN(Cc2ccc4c(c2)OCO4)[C@H](CO)c2[nH]c4cc(OC)ccc4c23)cc1 | -2 | -46 | 27
C[C@H](CO)N1C[C@H](C)[C@H](CN(C)C(=O)c2cccc(F)c2)Oc2ncc(-c3ccncc3)cc2C1=O | -1 | 0 | -1.6
CCN1CC(=O)N2[C@H](C1)[C@H](c1ccc(Br)cc1)[C@@H]2CO | -1 | 2 | -0.9
CC(C)(C)[S@@](=O)N1Cc2cc(C(=O)O)nc(-c3cccc(-c4ccc(F)cc4)c3)c2[C@H]1CCO | 5 | 13 | 0.1
CO[C@H]1CN(C)C(=O)c2ccc(NC(=O)c3ccc(-c4ccccc4)cc3)cc2OC[C@@H](C)NC[C@@H]1C | -9&-60 | -9&-71 | 29&-19
O=C(NCC1CC1)[C@H]1[C@H](CO)[C@H]2Cn3c(ccc(-c4cccnc4)c3=O)[C@@H]1N2C(=O)C1CCCC1 | 2 | 2 | -2.2
C[C@H](CO)N1C[C@H](C)[C@H](CN(C)C(=O)Nc2ccc(C(F)(F)F)cc2)Oc2ccc(NS(=O)(=O)c3ccccc3)cc2C1=O | -8 | -13 | 2.0
CC(C)[C@H](C)NC(=O)N(C)C[C@H]1OCc2ccccc2-c2ccccc2C(=O)N([C@@H](C)CO)C[C@H]1C | 2 | 2 | -1.4
O=C(Nc1ccccc1)N1CC(=O)N2[C@H](CO)[C@H](c3ccc(C#CC4CC4)cc3)[C@@H]2C1 | 4 | 10 | 4.1
O=C(C[C@@H]1CC[C@@H]2[C@H](COC[C@H](O)CN2CC2CCOCC2)O1)NCC1CCCCC1 | i | / | /

Next compounds
smiles | Ecoli rRNA inh | Ecoli rRNA inh OD600 | Ecoli rRNA inh RFP
C[C@@H]1CN(C)C(=O)Cc2cc(N)ccc2O[C@H]1CN(C)S(C)(=O)=O | 2 | -5 | -1.5
COc1ccc2c3c(n(C)c2c1)[C@H](CO)N(C(=O)Nc1ccc(F)cc1)CC31CN(S(=O)(=O)c2cn(C)cn2)C1 | -4 | -10 | 0.8
O=C(C1CCCC1)N1CC(=O)N2[C@H](C1)[C@@H](c1ccc(-c3ccccc3F)cc1)[C@@H]2CO | -35 | -71 | 1.9
CCCNC(=O)C[C@@H]1CC[C@@H]2[C@@H](COc3ccc(NC(=O)c4ccc(C(F)(F)F)cc4)cc3C(=O)N2C)O1 | 1 | -1 | -2.1
CC(=O)Nc1ccc2c(c1)C(=O)N(C)C[C@@H](C)[C@@H](CN(C)C(C)=O)O2 | -1 | 4 | -1.7
CO[C@@H]1CN(C)C(=O)c2cc(NS(=O)(=O)c3cn(C)cn3)ccc2OC[C@H](C)N(C)C[C@@H]1C | 1 | 2 | 1.4
N#C[C@H]1[C@@H](c2ccccc2-c2cccc(F)c2)[C@@H](CO)N1C(=O)C1CC1 | -5 | -14 | 1.5
COc1cccc(-c2ccc([C@H]3[C@H](CO)N4C(=O)CN(C(=O)C5CC5)C[C@@H]34)cc2)c1 | 2 | 1 | -1.0
CC[C@H]1C/C=C\C[C@H](CC)NC(=O)[C@H](C)CC(=O)N1 | 4 | 8 | -1.9
CC(C)CC#Cc1ccc([C@H]2[C@@H](CO)N3CCCCN(C(=O)Nc4ccccc4)C[C@@H]23)cc1 | -2 | -21 | -1.1

More entries follow:
smiles | Ecoli rRNA inh | Ecoli rRNA inh OD600 | Ecoli rRNA inh RFP
C[C@@H]1CN([C@@H](C)CO)C(=O)c2cc(C#CC(C)(C)O)cnc2O[C@H]1CN(C)C(=O)C1CCCCC1 | 3 | 6 | -2.2
C[C@H]1CN([C@@H](C)CO)C(=O)Cc2cc(NC(=O)C3CC3)ccc2O[C@H]1CN(C)C(=O)Nc1ccc2c(c1)OCO2 | 2 | 14 | 0.3
COCC(=O)N1CC2(CN(S(C)(=O)=O)C2)c2c(n(C)c3cc(OC)ccc23)[C@H]1CO | 2 | 12 | -1.9
C[C@@H]1CN([C@@H](C)CO)C(=O)c2cc(NS(=O)(=O)c3ccccc3)ccc2O[C@H]1CN(C)Cc1ccc(Oc2ccccc2)cc1 | 6 | -10 | 4.6
O=C(Cc1cccnc1)N1CC(=O)N2[C@H](CO)[C@@H](c3ccc(C#CC4CC4)cc3)[C@H]2C1 | 0 | 17 | 0.3
C[C@@H]1CN([C@H](C)CO)S(=O)(=O)c2ccc(C#Cc3ccc(F)cc3)cc2O[C@@H]1CN(C)CC1CC1 | -16 | -50 | 16

Ordered by number of heavy atoms (highest first): part of the list above.
smiles | Ecoli rRNA inh | Ecoli rRNA inh OD600 | Ecoli rRNA inh RFP
Cc1noc(C)c1S(=O)(=O)Nc1ccc2c(c1)C(=O)N([C@@H](C)CO)C[C@H](C)[C@@H](CN(C)C(=O)c1ccccc1)OCCCC[C@H](C)O2 | 1 | -2 | 1.9
CCCN1C[C@H](C)[C@H](OC)CN(C)C(=O)c2cc(NC(=O)c3ccccc3)ccc2OC[C@H]1C | 1 | 4 | -0.4
O=C(C[C@@H]1CC[C@@H]2[C@H](COC[C@H](O)CN2CC2CCOCC2)O1)NCC1CCCCC1 | i | / | /
CC(=O)N1CC[C@H]2[C@H](CO)Nc3ccc(C#Cc4ccccc4F)cc3[C@H]21 | 2 | 9 | 1.2
COc1ccc(C[C@H]2CCc3cnnn3COCCNC2=O)cc1 | 1 | 7 | -0.4
CC[C@H]1C/C=C\C[C@H](CC)NC(=O)[C@H](C)CC(=O)N1 | 4 | 8 | -1.9

Bioassay records (PubChem)
